High-throughput results as filed in PubChem.
GLA inh pH 4.5 – qHTS Assay for Inhibitors of Human alpha-Galactosidase at pH 4.5; purified enzyme, 4-MU-alpha-Gal fluorescence, pH 4.5; 230,000 tested, under 10 active; AID 1467, 2008; activity change, negative = inhibition, % at 105 µM; Alpha-galactosidase A (Homo sapiens), P06280; inconclusive = small, poorly fitted or top-dose-only inhibition, or a rising curve; inactive = flat fitted curve, though single readings scatter; no compound was filed as active;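 also: 0% = full activity with enzyme and -100% = basal without enzyme; dose as in the result columns while the protocol names 77 µM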
Target sequence (P06280 whole entry, looked up): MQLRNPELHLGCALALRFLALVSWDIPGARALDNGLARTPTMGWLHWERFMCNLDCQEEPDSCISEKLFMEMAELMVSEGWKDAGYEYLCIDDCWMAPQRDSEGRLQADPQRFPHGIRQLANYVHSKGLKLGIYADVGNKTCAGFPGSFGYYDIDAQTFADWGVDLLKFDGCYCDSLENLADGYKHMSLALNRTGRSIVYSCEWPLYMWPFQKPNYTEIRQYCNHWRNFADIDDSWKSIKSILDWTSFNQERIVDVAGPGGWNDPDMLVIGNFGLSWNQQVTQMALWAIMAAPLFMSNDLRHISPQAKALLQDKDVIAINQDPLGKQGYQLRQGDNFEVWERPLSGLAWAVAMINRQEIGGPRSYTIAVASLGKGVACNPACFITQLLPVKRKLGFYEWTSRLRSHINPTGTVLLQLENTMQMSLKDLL
miR-21 FLuc – qHTS Assay for Modulators of miRNAs and/orActivators of miR-21; 340,000 tested, under 10 active; Potency, µM (highest dose often 38.3 µM), for inactives: at the top dose reporter change, positive = more light; HeLa miR-21 FLuc reporter, luciferase, 48 h; active = well fitted rising curve with a large enough effect; inconclusive = small, poorly fitted or top-dose-only effect; inactive = no such curve, though single readings can be large or run the other way;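 also: % of control where 0% means no effect; miR-21 action dims this reporter so a rising signal means less miR-21 action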
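Luminescence from a firefly luciferase reporter carrying a miR-21 binding site downstream, stably expressed under a CMV promoter in HeLa cells that make miR-21 endogenously, reports miRNA modulation after 48 h compound exposure up to approximately 40uM final.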
Rango-impB inh – qHTS Assay for Inhibitors of Rango (Ran-regulated importin-beta cargo) - Importin beta complex formation; Importin subunit beta-1 (Homo sapiens), Q14974; Potency, µM (top dose mostly 92.2 µM), inactives show at the top dose inhibition of complex formation; Rango CFP/YFP FRET sensor + importin beta, 45 min; actives 0.031% (n = 340,000); active = rising FRET ratio curve, often small or poorly fitted; inconclusive = mostly compound fluorescence or quenching in the first reads; inactive = flat curves in all reads;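 also: potency is read from the fitted curve at half-maximal effect; 0% = DMSO wells and 100% = buffer wells lacking importin beta; nearly all actives have a fitted effect of over 15% in size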
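FRET biosensor Rango (snurportin 1 IBB between N-terminal EYFP and C-terminal Cerulean), 50 nM in PBS/1 mM DTT/0.02% Tween-20/0.1% BSA, preincubated 5 min RT with compound; 0.125 microM importin beta added, 45 min RT, CFP/YFP FRET ratio read.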
Rango release inh – qHTS Assay for Inhibitors of RanGTP induced Rango (Ran-regulated importin-beta cargo) - Importin beta complex dissociation | Snurportin-1 (Homo sapiens) + GTP-binding nuclear protein Ran (Homo sapiens) + Importin … | Biochemical FRET Rango-importin beta, RanGTP-induced dissociation | Potency, µM (series often up to 46.1 µM), for inactives: at the highest dose activity change, negative = inhibition | actives 0.071% (n = 340,000); active means falling FRET ratio curve, often poorly fitted, with flat reads before Ran was added; inconclusive means other falling curves, or compound fluorescence or quenching; inactive means flat or rising ratio curve;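 also: potency is read from the fitted curve at half-maximal effect; % of control where 0% means no effect; nearly all actives have a fitted effect of over 45% in size; -100% = wells without RanGTP and RCC1; the record marks most hits as doubtful in a second field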
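FRET read at 45 min, room temperature: inhibitors block the CFP/YFP signal rise when RanGTP (0.6 uM Ran, 2 mM GTP, 0.2 uM RCC1) frees Rango (0.1 uM) from importin beta (0.25 uM). Pre-read after 5 min compound exposure flags interference.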
Numbers without * were called inactive; ? = inconclusive; . = no result given; & = joins results of further samples; [ ] = another dose, or the depositor's remark.

GLA inh pH 4.5 | miR-21 FLuc | Rango-impB inh | Rango release inh | canonical_smiles
-4 | -2% | -0.4% | ? | COc1ccc2nc(NC(=O)C(NS(=O)(=O)c3cccc4nsnc34)C(C)C)sc2c1 (centres undefined)
. | -5% | -0.4% | 6% | CC1CCCC(C)N1C(=O)CSc1nc(N)cc(N)n1 (centres undefined)
-6 | -15% | -3.9% | 3% | Cc1cc(C)c(S(C)(=O)=O)c(Sc2ccc(Cl)cc2)n1
-2 | 13% | -0.2% | -5% | COc1ccccc1S(=O)(=O)Cc1ccc(C(=O)N2CCN(c3ccccc3)CC2)o1
6 | -13% | ? | ? | COC(=O)Cc1c(C)c2c(O)cc(C)cc2oc1=O
-13 | -3% | 2.1% | -11% | Cn1c(-c2ccc(Br)cc2)cnc1NCc1cccnc1
0 | -1% | 1.5% | -5% | CS(=O)(=O)N(CC(=O)N1CCC(C(N)=O)CC1)c1cc(C(F)(F)F)ccc1Cl
-12 | -42% | -1.4% | -10% | Oc1ccc(/C=N/Nc2ncnc3nc[nH]c23)cc1
-14 | -5% | -3.8% | -1% | COc1ccc(-c2csc(NC(=O)CSc3nc(C)nc4sc(C(=O)O)c(C)c34)n2)cc1
. | -3% | 1.2% | -12% | CCn1cc(C(=O)N(C)CC(OC)OC)c(=O)c2cc(S(=O)(=O)N3CCOCC3)ccc21
0 | -17% | 0.7% | -8% | CCOC(=O)c1cc(-c2ccncc2)nc2c1c(C)nn2C
-2 | -17% | -0.4% | -8% | O=C(COC(=O)c1ccccc1Br)NCc1ccccc1
-4 | -42% | -0.4% | 8% | O=C(O)c1ccccc1CSc1nc2ccccc2o1
3 | 0% | 1.7% | 0% | CSc1ccc(CN2CCN(Cc3ccccc3)C(CCO)C2)cc1 (centres undefined)
6 | 0% | 1.8% | 17% | CCC1SC2=NC(C)=C(C(=O)OC)C(c3cccs3)N2C1=O (centres undefined)
-3 | -68% | -0.4% | -10% | Cc1c(/C=C/C(=O)c2ccc(O)cc2)cnn1C
9 | 2% | 0.2% | -21% | CCOc1ccc(CC(=O)NNC(=S)NCCc2ccccc2)cc1
. | . | -3.5% | 33% | CC(C)Cn1c(N)c(C(=O)COC(=O)C2CC(=O)N(c3ccc4c(c3)OCCO4)C2)c(=O)n(C)c1=O (centres undefined)
-6 | -1% | 0.9% | 1% | COC(=O)CSc1nn(-c2ccc(F)cc2)c(=S)s1
-18 | -12% | 0.3% | -3% | COc1ccc(CNC(=S)NC2CCCC2)cc1
-4 | 12% | 2.2% | 2% | Cc1nn(Cc2ccc(Cl)cc2Cl)c(C)c1NC(=O)c1ccc(COc2cc(Cl)ccc2Cl)o1
-2 | 0% | 6.6% | -7% | CCCn1c(SCC(=O)c2c(C)[nH]c(C)c2C(=O)OCC)nc2ccccc21
-3 | -44% | ? | -30% | CCN1CC(O)=C(c2nc3ccccc3s2)C1=N
6 | -5% | 1.2% | 3% | COc1cccc(-c2cnc(NCc3cc(Cl)ccc3O)n2C)c1
11 | 2% | 0.1% | -1% | CC1=C(C(=O)Nc2cccnc2)C(c2ccncc2)n2nnnc2N1 (centres undefined)
-1 | -10% | ? | ? | CN1c2ccsc2C(O)=C(C(=O)Nc2ccccc2)S1(=O)=O
2 | -14% | 0.5% | -4% | CCCn1c(N2CCN(Cc3cccc(C)c3)CC2)nc2c1c(=O)[nH]c(=O)n2C
. | 1% | -3.5% | 8% | Cc1ccc(S(=O)(=O)N(CCO)Cc2ccccc2)cc1
9 | -1% | 1.5% | 22% | CCC(=O)Nc1ccc(S(=O)(=O)Nc2cccnc2)cc1
1 | -25% | 5.2% | -1% | Cc1cccc(Nc2ncnc3ccccc23)c1

No new results follow: 3 of the compounds above.
GLA inh pH 4.5 | miR-21 FLuc | Rango-impB inh | Rango release inh | canonical_smiles
. | 1% | -3.5% | 8% | Cc1ccc(S(=O)(=O)N(CCO)Cc2ccccc2)cc1
9 | -1% | 1.5% | 22% | CCC(=O)Nc1ccc(S(=O)(=O)Nc2cccnc2)cc1
1 | -25% | 5.2% | -1% | Cc1cccc(Nc2ncnc3ccccc23)c1

The listing continues.
GLA inh pH 4.5 | miR-21 FLuc | Rango-impB inh | Rango release inh | canonical_smiles
-3 | -1% | 0.7% | -4% | N#CCc1ccc(Oc2ncc(C(F)(F)F)cc2Cl)cc1
7 | -6% | -0.2% | 1% | Cc1nc2ccc(S(=O)(=O)NCC(=O)N(C)Cc3ccco3)cc2s1
. | . | 4.2% | -11% | Cc1cc(C)c(NS(=O)(=O)c2ccccc2)c(C)c1
-12 | 5% | -1.5% | 0% | COc1ccccc1NC(=O)N(Cc1ccco1)Cc1cc2cc(C)cc(C)c2[nH]c1=O
. | -8% | -0.3% | 12% | O=C(Nc1ccccc1Oc1ccsc1C(=O)O)c1ccccc1F
-7 | -7% | -0.5% | 5% | O=C(/C=C/c1ccc(Cl)cc1)N1CCN(c2ccc(Cl)cc2[N+](=O)[O-])CC1
-6 | 4% | 0.8% | 1% | O=[N+]([O-])C(=C1NCCN1)C(Cl)=C(Cl)Cl
? | -12% | ? | ? | CCCc1cc(=O)oc2c(CN3CCN(C)CC3)c(O)c(Cl)cc12
. | . | -0.2% | 6% | Cc1ccc(CN(C)C(=O)CN2C(=O)NC(c3ccccc3)(c3ccccc3)C2=O)c(C)c1
1 | 18% | -0.1% | 10% | COc1ccc(/C=N/NS(=O)(=O)c2ccccc2)cc1OS(=O)(=O)c1ccc(C)cc1
4 | 1% | -3.5% | -13% | CSc1nncn1/N=C/c1ccc([N+](=O)[O-])cc1
1 | -2% | 0.0% | 1% | S=c1[nH]c(-c2ccccc2)cn1/N=C/c1cccnc1
. | -2% | -5.2% | 2% | COc1cc(NC(=O)CCc2nnc3ccc(NCc4ccco4)nn23)cc(OC)c1
. | 3% | 2.2% | -9% | CCSc1oc(-c2ccco2)nc1S(=O)(=O)c1ccc(C)cc1
0 | -2% | -2.1% | -7% | Cc1ccc(C(=O)Nc2ncc(Cc3ccccc3)s2)o1
9 | -10% | -3.6% | 0% | O=C(CN1C(=O)NC2(CCCCC2)C1=O)Nc1cccc(S(=O)(=O)N2CCOCC2)c1
11 | 6% | 2.4% | 1% | Cc1ccc(C(C)C)c(OCC(=O)Nn2c(C)nc3ccccc3c2=O)c1
-1 | 15% | -3.8% | -6% | COc1cc(CC(=O)Nc2cccc(SC)c2)cc(OC)c1OC
. | 3% | ? | ? | CC(C)N1CCc2c(sc(NC(=O)c3ccc(S(=O)(=O)N4CCCCC4C)cc3)c2C(N)=O)C1 (centres undefined)
. | 15%&18% | -0.4% | -1% | COc1ccc(CCNC(=O)c2ccc3c(c2)N(Cc2ccc(C)cc2)CCS3)cc1OC
. | -4% | 3.4% | 1% | COc1ccc(S(=O)(=O)NC2CCCC2)c(OC)c1
-2[21.1 µM] | -4% | 0.0% | -1% | Cc1ccc(NC(=O)COC(=O)C2CCC(=O)N2)c([N+](=O)[O-])c1 (centres undefined)
-4 | -2% | 0.3% | -3% | CN(C)c1nc2ncn(Cc3ccccc3)c2c(=O)[nH]1
-15 | -7% | -2.7% | 21% | COc1cccc(CC(=O)Nc2ccc(S(=O)(=O)Nc3nc(C)cc(C)n3)cc2)c1
-6 | -2% | -1.3% | 4% | O=C(COC(=O)C1CCN(S(=O)(=O)c2cccc3cccnc23)CC1)c1ccc([N+](=O)[O-])cc1
-2 | -2% | 3.8% | 1% | CCCCN(CCCC)C(=S)NC(=O)c1ccccc1Cl
-22 | 0% | -2.6% | 6% | O=C(CSc1nc2ccccc2c(=O)n1-c1ccccc1Cl)Nc1cccc(S(=O)(=O)N2CCOCC2)c1
. | . | 0.4% | -5% | CC(NS(=O)(=O)c1cccc(C(=O)N(C)Cc2ccc(N3CCOCC3)cc2)c1)c1ccccc1 (centres undefined)
2 | -14% | 4.5% | 4% | Cc1ccc(NC(=O)CO/N=C(\N)c2nonc2N)cc1
. | . | -1.9% | 1% | Cc1nc(SC(C)C(=O)Nc2c(C)n(C)n(-c3ccccc3)c2=O)nc(C)c1C (centres undefined)

Later entries.
GLA inh pH 4.5 | miR-21 FLuc | Rango-impB inh | Rango release inh | canonical_smiles
. | -3% | -0.4% | -3% | COc1ccc(S(=O)(=O)Nc2c(C(=O)O)[nH]c3ccccc23)cc1
. | . | ? | 12% | COc1ccc(CNC(=O)C2(CC3CC(c4ccccc4)=NO3)CCN(C(=O)Cc3ccc(F)cc3)CC2)cc1 (centres undefined)
. | -11% | -1.7% | 14% | CCOc1ccc(N(C)S(=O)(=O)c2ccc(-c3ccc(=O)[nH]n3)s2)cc1
. | . | 0.3% | ? | CCN(C(=O)c1cccc(S(=O)(=O)N2CCCCC2)c1)C1CCS(=O)(=O)C1 (centres undefined)
-4 | -1% | -2.6% | -2% | C=CCNC(=O)c1oc2ccc(S(=O)(=O)N(CC)CC)cc2c1C
. | 1% | 3.4% | 2% | COc1ccc(CN2CCN(C3CCC3)CC2CCO)c(F)c1 (centres undefined)
10 | 6% | 2.1% | 5% | O=C1CCCc2[nH]nc(-c3cccnc3)c21
2 | 0% | -0.9% | -14% | C[N+](C)(C)C(Cc1ccccc1)C(=O)[O-] (centres undefined)
. | -2% | 0.8% | 6% | Cn1nc(C(=O)N2CCCCC2)c2c1-c1ccccc1S(=O)(=O)C2
. | . | -1.1% | 5% | CN(CC(=O)Nc1ccccc1Cl)C(=O)COC(=O)C1CCN(c2ccc(C(F)(F)F)cn2)CC1
3 | -50% | 2.7% | 31% | Cc1ccc(-n2cc(C(=O)c3ccc(F)cc3)nn2)cc1Cl
-3 | -4% | -0.4% | 6% | Cc1cc(C)cc(Nc2cnn(C34CC5CC(CC(CC(=O)O)(C5)C3)C4)c(=O)c2Cl)c1
-7 | -10% | 0.6% | -13% | C=CCC(=O)N1CCCC(CCC(=O)NCc2ccccc2F)C1 (centres undefined)
-8 | -1% | 0.2% | -10% | COc1ccc(C2C(C#N)=C(N)OC3=C2C(=O)CC(C)(C)C3)cc1 (centres undefined)
. | 1% | -1.7% | 13% | COc1ccc(CNC(=O)Cn2nc(C)c3c(C)n(-c4ccc(C)cc4)nc3c2=O)cc1OC
. | -1% | -2.1% | 1% | O=C(NCc1cccc(F)c1F)C1CCC(=O)N(C2CCCCCC2)C1 (centres undefined)
6 | -1% | -1.5% | 3% | CC(=O)N1CCN(c2ccc(NCc3ccc4c(c3)OCO4)cc2)CC1
8 | . | 3.8% | 12% | CCN1C(=O)N[C@@H](CCc2ccccc2)[C@H](C(C)=O)[C@H]1C

Quoted at random: 2 records from the list, in no set order.
GLA inh pH 4.5 | miR-21 FLuc | Rango-impB inh | Rango release inh | canonical_smiles
6 | -1% | -1.5% | 3% | CC(=O)N1CCN(c2ccc(NCc3ccc4c(c3)OCO4)cc2)CC1
10 | 6% | 2.1% | 5% | O=C1CCCc2[nH]nc(-c3cccnc3)c21

Full records, looked up by structure. Order of values: GLA inh pH 4.5 | miR-21 FLuc | Rango-impB inh | Rango release inh
`C=CCNC(=O)c1oc2ccc(S(=O)(=O)N(CC)CC)cc2c1C` reads -4 | -1% | -2.6% | -2%
`C[N+](C)(C)C(Cc1ccccc1)C(=O)[O-]` (centres undefined) reads 2 | 0% | -0.9% | -14%

The list is partial; count on the stated rates, not on these rows.
